# Bioassay records as filed in PubChem.
# CDC25B CDK2 inh: human CDC25B-CDK2/CyclinA binding inhibition; HTRF CDC25B-CDK2/CyclinA binding, anti-His/anti-Flag; stronger effect = higher value; AID 1259370; z-score (concentration not given with the values); 0.72% of 94,000 active;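 further: score is relative to mean and SD of negative controls; strong numbers were not always called active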
# TAR Tat displ: HIV-1 TAR-Tat binding disruption; z-score (no concentration beside the values); 0.6% of 100,000 active; HIV-1 TAR RNA, Tat peptide displacement FRET; stronger effect = higher value; AID 1259389;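 further: score is relative to mean and SD of negative controls; some compounds called inactive have numbers as strong as hits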
# The depositor's hits bear a star; / = not tested or not shown.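 How the source made its calls: active means z-score from 3 up in half or more of its runs; inactive means the rest.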
SMILES,CDC25B CDK2 inh,TAR Tat displ
CC(C)Oc1ccc(C2N3CC4(C(C)C)CN2CC(C(C)C)(C3)C4=O)cc1 (stereo not drawn),-0.39,/
CC(=O)N1CCC(NC(=O)Oc2ccc(Cl)cc2)CC1,-1.4,/
COc1ccccc1CNc1nc2c(S(=O)(=O)c3ccc(Cl)cc3)nnn2c2ccsc12,/,-0.79
CS(=O)(=O)Nc1ccc2nc(-c3ccc(F)cc3)oc2c1,1,-0.47
Cc1noc2ncnc(NC3CC3)c12,/,-0.2
O=C1c2ccccc2C(Nc2ccccc2Br)N1c1cccnc1 (stereo not drawn),-0.65,1.2
CC(C)Cn1cc(NC(=O)N2C(C)CCCC2C)c2ccccc2c1=O (stereo not drawn),/,1.4
COc1ccccc1-c1noc2ncnc(NCc3ccccc3)c12,/,2
O=C(CSc1nc2c(c(=O)[nH]1)CCCC2)Nc1cccc(Cl)c1,1.1,2.5
Cc1ccc(-c2nn3c(C)nnc3s2)cc1,-0.67,0.49
CNC(=O)CCc1nc2sc3c(c2c(=O)[nH]1)CCC(C)C3 (stereo not drawn),/,0.27
Cc1ccc2c(=O)cc(CSc3nnc(-c4ccccc4)n3C)[nH]c2c1C,/,-0.97
COc1ccc(NC(c2ccccn2)c2ccc3cccnc3c2O)cc1 (stereo not drawn),1.1,0.64
O=C(O)CCN1C(=O)C(=O)/C(=C(/O)c2ccc(Cl)cc2)C1c1ccccc1F (stereo not drawn),-0.98,/
Fc1ccc(N2CCN(c3nc4ccccc4n4nnnc34)CC2)cc1,-0.97,-2.7
Cc1cc2n(n1)CCC(=O)N2CCCC(=O)NCc1ccc(C)o1,/,2.4
COc1cccc2c1OC(C)(C)N1N=C(c3cccs3)CC21 (stereo not drawn),-2.4,/
COC(=O)C1C(=O)C2=C(CC1C)NC(C)=C(C(=O)OC(C)C)C2c1ccccc1F (stereo not drawn),-0.68,1
O=C(O)CCC(=O)C(=O)O (tested in a mixture with another compound),/,0.43
Cc1nn(-c2nncc(-c3ccccc3)n2)c2c1C(c1ccc(F)cc1F)CC(=O)N2 (stereo not drawn),-1,1
Cc1cc2oc(C(=O)Nc3ccc4nsnc4c3)c(C)c2cc1C,-1.8,-0.27
COc1ccc(-n2c(=O)c3sc4ccccc4c3n(C)c2=O)cc1,-0.41,1.8
COc1ccc(Nc2nc3c(S(=O)(=O)c4ccccc4)nnn3c3ccsc23)cc1,/,-1.8
O=C(OCCOc1ccc([N+](=O)[O-])cc1)c1ccc(Br)o1,-1.2,/
Cn1c(=O)cc(SCC(=O)N2CCN(c3ccccc3)CC2)c2ccccc21,-2.6,/
O=C1CCCC2=C1C(c1ccncc1)n1nc(SCc3ccccc3F)nc1N2 (stereo not drawn),0.77,/
O=S(=O)(c1cc(-c2nnc(-c3ccccc3)o2)ccc1F)N1CCN(c2ccccc2)CC1,/,2.1
CC1CCCC(NC(=O)c2cc3sc(Cl)cc3n2C)C1C (stereo not drawn),-1.9,/
O=C(Nc1cccc(NC(=O)c2c(F)cccc2F)n1)c1c(F)cccc1F,-0.42,/
COc1ccc(-c2csc3ncnc(Cl)c23)cc1,-1.9,-1.6

# As entered above:
# `O=C1CCCC2=C1C(c1ccncc1)n1nc(SCc3ccccc3F)nc1N2` (stereo not drawn) – CDC25B CDK2 inh = 0.77
# `CNC(=O)CCc1nc2sc3c(c2c(=O)[nH]1)CCC(C)C3` (stereo not drawn) – TAR Tat displ = 0.27

# Continuation:
SMILES,CDC25B CDK2 inh,TAR Tat displ
Cc1nc2ccc(S(=O)(=O)NC(C(=O)N3CCN(c4ccc(F)cc4)CC3)C(C)C)cc2s1 (stereo not drawn),-1.9,-0.2
CCOC(=O)c1cn[nH]c1S(=O)(=O)Nc1ccc(Br)cc1F,/,0.13
O=C(Cc1ccc(Cl)cc1)Nc1ccc2[nH]c(=O)sc2c1,/,0.07
O=S(=O)(c1ccccc1)n1nc(-c2cccnc2)nc1NCc1ccccc1,-3,3
O=C(Nc1ccc(Cl)cc1)c1noc2c1CCc1sccc1-2,/,0.97
COCCCNc1sc(S(=O)(=O)c2ccccc2)nc1S(=O)(=O)c1ccc(Cl)cc1,-0.07,-0.45
O=C1C=CC(=O)N1c1ccccc1N1C(=O)c2ccccc2C1=O,-1.2,/
CC1CN(c2nc3ccccc3nc2SCC(=O)N2CCN(C3CCCCC3)CC2)CC(C)O1 (stereo not drawn),-2.2,0.57
CCCC1NC(=S)N(C2CCCCC2)C1=O (stereo not drawn),-1.4,/
COc1ccc(C2Nc3ccccc3NC3=C2C(=O)CC(c2ccc(OC)c(OC)c2)C3)cc1 (stereo not drawn),0.52,0.7
O=[N+]([O-])c1cc(Cl)c(-n2cccc2)c(Cl)c1,-1.4,/
Cc1ccc(S(=O)(=O)NC(c2nnc(-c3ccccc3)o2)c2ccccc2Cl)cc1 (stereo not drawn),/,-0.98
Cc1ccc(Cn2c(=S)[nH]c3c2c(=O)n(C)c(=O)n3C)cc1,-0.75,/
CCCSc1nc(N2CCOCC2)c2c3c(sc2n1)COC(C)(CC)C3 (stereo not drawn),-0.85,-2.5
O=S(=O)(/N=C(\Nc1cccc(OC(F)(F)C(F)Cl)c1)C(F)(F)F)c1ccccc1 (stereo not drawn),-1.9,/
C=CCOc1c(Cl)cc(CNc2ccc3[nH]c(=O)[nH]c3c2)cc1OC,-0.61,1.6
O=C(NCC(O)COCc1ccccc1)c1ccccc1 (stereo not drawn),-2.4,/
CCOC(=O)c1c(NC(=O)c2nc(S(C)(=O)=O)ncc2Cl)sc2c1CCC2,0.47,1.9
O=C(NCC1CCCO1)N1CCC(n2nnc3ccccc3c2=O)CC1 (stereo not drawn),/,1.5
O=c1c(-c2ccc(Cl)cc2)coc2c(CN3CCOCC3)c(O)ccc12,-0.96,0.77
CCC(=O)N1c2nc(-c3ccco3)nn2C2(CCCCC2)[C@@H]2CCCC[C@@H]21,-1.9,0.85
CCOC(=O)C(C)NC(=O)c1c(C)oc2ncnc(N3CCOCC3)c12 (stereo not drawn),/,0.91
COc1ccc(OCC(O)Cn2c(N3CCCC3)nc3c2c(=O)[nH]c(=O)n3C)cc1 (stereo not drawn),-0.19,/
NC(=O)CSc1nnc(-c2cccc(Cl)c2)o1,-0.62,2.6
Cc1[nH]c2ccccc2c1C1=CCN(S(=O)(=O)c2ccccc2)CC1,-1.6,-1.6
CC(C)C(=O)Nc1c(C(=O)N2CCN(c3ncccn3)CC2)oc2ccccc12,/,0.99
CCCC(=O)Nc1nc2c(s1)CC(C)CC2 (stereo not drawn),-1.6,-0.92
COc1ccc(C(c2sc3nc(C)nn3c2O)N2CCN(C)CC2)cc1OC (stereo not drawn),-0.89,/
CCOC(=O)CN1C(=O)NC2NC(=O)NC21 (stereo not drawn),-2.3,1.1
Cc1onc(C(=O)N2CCOCC2)c1[N+](=O)[O-],-1.1,1.1
COc1ccc(C2C3C(=O)N(c4ccc(C)cc4)C(=O)C3N3CCCN23)cc1 (stereo not drawn),0.23,/
CCC12CN3CC(CC)(CN(C1)C3c1cccc(OC)c1O)C2O (stereo not drawn),0.01,0.4
Cc1nc(N2CCCC2)c2c(C(=O)Nc3ccc(Cl)cc3)c(C)oc2n1,/,0.9
CC(C1CC1)n1nccc1NC(=O)COc1ccc(F)cc1 (stereo not drawn),-1.3,0.9
COc1cccc(NC(=O)N2CCCC2c2ccco2)c1 (stereo not drawn),-2.9,1.2
CC(=O)N1c2c(cc(Br)cc2S(=O)(=O)CCC(=O)NC2CCCC2)CC1C (stereo not drawn),-1.3,/
COc1ccc(Cl)cc1NC(=O)C(C)Sc1nc2c(c(=O)[nH]1)CCC2 (stereo not drawn),0.8,-0.57
O=C(c1ccc(OCCCc2cnc[nH]2)cc1)C1CC1,0.04,/

# Structures listed so far that have a Cl atom, in the order listed:
SMILES,CDC25B CDK2 inh,TAR Tat displ
CC(=O)N1CCC(NC(=O)Oc2ccc(Cl)cc2)CC1,-1.4,/
COc1ccccc1CNc1nc2c(S(=O)(=O)c3ccc(Cl)cc3)nnn2c2ccsc12,/,-0.79
O=C(CSc1nc2c(c(=O)[nH]1)CCCC2)Nc1cccc(Cl)c1,1.1,2.5
O=C(O)CCN1C(=O)C(=O)/C(=C(/O)c2ccc(Cl)cc2)C1c1ccccc1F (stereo not drawn),-0.98,/
CC1CCCC(NC(=O)c2cc3sc(Cl)cc3n2C)C1C (stereo not drawn),-1.9,/
COc1ccc(-c2csc3ncnc(Cl)c23)cc1,-1.9,-1.6
O=C(Cc1ccc(Cl)cc1)Nc1ccc2[nH]c(=O)sc2c1,/,0.07
O=C(Nc1ccc(Cl)cc1)c1noc2c1CCc1sccc1-2,/,0.97
COCCCNc1sc(S(=O)(=O)c2ccccc2)nc1S(=O)(=O)c1ccc(Cl)cc1,-0.07,-0.45
O=[N+]([O-])c1cc(Cl)c(-n2cccc2)c(Cl)c1,-1.4,/
Cc1ccc(S(=O)(=O)NC(c2nnc(-c3ccccc3)o2)c2ccccc2Cl)cc1 (stereo not drawn),/,-0.98
O=S(=O)(/N=C(\Nc1cccc(OC(F)(F)C(F)Cl)c1)C(F)(F)F)c1ccccc1 (stereo not drawn),-1.9,/
C=CCOc1c(Cl)cc(CNc2ccc3[nH]c(=O)[nH]c3c2)cc1OC,-0.61,1.6
CCOC(=O)c1c(NC(=O)c2nc(S(C)(=O)=O)ncc2Cl)sc2c1CCC2,0.47,1.9
O=c1c(-c2ccc(Cl)cc2)coc2c(CN3CCOCC3)c(O)ccc12,-0.96,0.77
NC(=O)CSc1nnc(-c2cccc(Cl)c2)o1,-0.62,2.6
Cc1nc(N2CCCC2)c2c(C(=O)Nc3ccc(Cl)cc3)c(C)oc2n1,/,0.9
COc1ccc(Cl)cc1NC(=O)C(C)Sc1nc2c(c(=O)[nH]1)CCC2 (stereo not drawn),0.8,-0.57
